Screens from PubChem.
Six1-Eya2 blk – blocks human Six1 binding to Eya2; Q15475+O00167; AlphaScreen GST-Six1/His-Eya2 binding, biochemical; hits give low values; control for the full effect not named in the record; activity change, % (test concentration not listed); 360,000 tested, 0.56% active; in the data active = activity change below about -65%; inconclusive = about -30% to -65%; inactive = above about -30%; further: on the % scale 0 is the no-effect control and ±100 the full control effect; compound concentration not given in the record
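GST-Six1 + His-Eya2 (5X stock: 250/500 nM); Tris pH 8.0, 300 mM NaCl, 0.05% BSA, 0.02% Tween 20; GSH donor/Ni acceptor beads; 1 h 37 °C dark; AlphaScreen readout.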
gsp agonist – agonists of gsp mutant (McCune-Albright syndrome); gsp mutant cells, cAMP HTRF, 30 min; control for the full effect not named in the record; Potency, µM (doses to about 76.9 µM), for inactives: top-dose activation (cAMP increase), hits mostly activators; 340,000 tested, 0.13% active; active = well fitted activation curve with a large enough effect; inconclusive = small, poorly fitted or top-dose-only effect, or another doubt; inactive = no such curve, though single readings can be large or run the other way; cell line not stated here;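 further: phosphodiesterase inhibitor Ro 20-1724 added with compounds to block cAMP breakdown; potency means the concentration at half of the fitted maximal effect; nearly all actives have a fitted effect of over 60% in size; about a fifth of the inactives were tested at one dose only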
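Cells stably selected in G418 were plated at 2000/well, grown 16-24 hr, then given compounds in DMSO with the PDE inhibitor […] (300 uM solution added) for 30 min at 37C; cAMP was read by HTRF.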
D2 potentiator – positive allosteric modulators of human D2 dopamine receptor; DiscoveRx D2 beta-arrestin cells, luminescence, 90 min; 100% = 57 uM dopamine signal; P14416; potentiation, % (concentration not given with the values); 360,000 tested, 0.23% active; active = potentiation of 50% or more; inconclusive = 30% to 50%; inactive = 30% or less;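 further: compound concentration not given in the record; tested on top of an EC20 dose of dopamine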
Target sequence (P14416 whole entry, looked up): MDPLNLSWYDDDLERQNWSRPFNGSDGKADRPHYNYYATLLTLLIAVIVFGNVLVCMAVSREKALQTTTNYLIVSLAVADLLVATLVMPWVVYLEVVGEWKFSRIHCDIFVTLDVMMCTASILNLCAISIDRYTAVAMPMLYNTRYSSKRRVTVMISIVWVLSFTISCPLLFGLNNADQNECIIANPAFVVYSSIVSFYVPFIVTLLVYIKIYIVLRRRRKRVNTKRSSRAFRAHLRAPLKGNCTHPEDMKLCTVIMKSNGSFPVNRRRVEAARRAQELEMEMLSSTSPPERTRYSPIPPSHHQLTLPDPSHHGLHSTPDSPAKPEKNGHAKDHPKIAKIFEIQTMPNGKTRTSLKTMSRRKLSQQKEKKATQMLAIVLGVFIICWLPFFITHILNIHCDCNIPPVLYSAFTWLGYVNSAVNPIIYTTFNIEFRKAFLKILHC
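D2 cells co-treated with compound plus 50 nM dopamine (EC20) for 90 min at 37 deg C to detect potentiation. Beta-arrestin recruitment was read as enzyme-fragment luminescence after 1 h at ambient temperature. Full response was set by 57 uM dopamine.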
gsp antagonist – antagonizes gsp, the McCune-Albright syndrome mutation; gsp-mutant cells, cAMP HTRF, 30 min; control for the full effect not named in the record; 340,000 tested, 0.4% active; Potency, µM (series often up to 76.9 µM), inactives show top-dose activity change, negative = inhibition, most hits filed as inhibitors; AID 624288; active = falling curve of any shape with a large fitted effect; inconclusive = falling curve, mostly with a smaller effect; inactive = flat or rising curve; cell line not stated here;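 further: intracellular cAMP measured with PDE inhibitor Ro 20-1724 present during compound exposure; potency means the concentration at half of the fitted maximal effect; on the % scale 0 is the no-effect control and ±100 the full control effect; nearly all actives have a fitted effect of over 65% in size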
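G418-selected cells were plated in DMEM/10% FBS for 16-24 h at 37C, then treated with compounds plus the PDE inhibitor […] (300 uM solution added) for 30 min at 37C. Intracellular cAMP was measured by HTRF after 30 min lysis at room temperature.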
D2 ag – human D2 receptor agonism in beta-arrestin assay. P14416. DiscoveRx PathHunter D2 beta-arrestin, luminescence, 90 min; 100% = 57 uM dopamine signal. activation, % (test concentration not listed). 360,000 tested, 0.084% active. AID 624465; in the data active = activation above about 40%; inconclusive = about 15% to 40%; inactive = below about 15%; further: compound concentration not given in the record; the text of the record calls up to 30% inactive
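Agonist mode: compounds alone added to overnight-plated D2 PathHunter cells for 90 min at 37 C, with 57 uM final dopamine (EC100) defining full response. Beta-arrestin recruitment detected by chemiluminescent reagent, read after 1 h at ambient temperature.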
CtBP-E1A inh – CtBP/E1A binding inhibition; AlphaScreen GST-E1A/His-CtBP binding, 1536-well; hits give low values; control for the full effect not named in the record; activity change, % (concentration not given with the values); 340,000 tested, 0.49% active; AID 651724; in the data active means activity change below about -65%; inconclusive means about -30% to -65%; inactive means above about -30%; further: on the % scale 0 is the no-effect control and ±100 the full control effect
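Steps: dispense buffer (Tris pH 8.0, NaCl 300 mM, TCEP 1 mM, BSA, Tween 20); add 5X protein mix (GST-E1A, His-CtBP, 125 nM each); pin 23 nL compound; 2 h at 37 °C, dark; add 5X beads (50 ug/mL); 1 h; read.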
* marks the source's active call; other numbers are inactive results; ? = inconclusive; . = no result given; [ ] = dose if it differs, or a comment.

Six1-Eya2 blk	gsp agonist	D2 potentiator	gsp antagonist	D2 ag	CtBP-E1A inh	mol
17	15%	2	4%	-0.2	8	Cc1ccc(CN2C(=O)CSC(C)C2=O)cc1 (configuration not stated)
0	-66%[inhibitor]	-10	5%	-4.7	3	Cc1ccsc1C=Nc1c(C)n(C)n(-c2ccccc2)c1=O
18	.	-20	.	44*	2	c1ccc(OCCNc2nc(NCC3CC3)nc3cc(-c4ccccc4)sc23)cc1
11	-14%	0	8%	0.6	0	COc1cc(S(=O)(=O)N(C)C)ccc1F
5	27%	-8	-31%	-4.0	1	CC(OC(=O)/C(C#N)=C/c1ccc(N(C)C)cc1)C(=O)N(C)Cc1ccccc1 (configuration not stated)
5	3%	-15	11%	-4.5	-4	COCCN1CCN(C(=O)C2CCC(=O)N(CCc3ccccc3)C2)CC1 (configuration not stated)
-13	3%	-16	7%	-4.8	-11	O=C(Nc1ccc2c(c1)OCO2)NC1CCN(Cc2ccccc2)CC1
12	6%[15.4 µM]	-2	-2%	-3.4	4	CCc1nnc(NC(=O)C2CCN(C(=O)c3ccco3)CC2)s1
2	0%	-6	5%	-2.0	1	C=CCOc1nc(N(C)C)nc(N(C)C)n1
10	-5%	-8	8%	-2.3	26	O=S(=O)(c1ccc(Cl)cc1)N1CCN(CCc2ccccc2)CC1
3	-14%	25	8%	-3.1	-12	N#Cc1ccccc1NC(=O)Nc1cccc(Cl)c1
-16	-53%[inhibitor]	-10	3%	-2.6	-10	C/C(=N\Nc1ccc(Cl)cc1)c1ccccn1
-5	14%	-44	-7%	-4.9	-1	O=C(Cc1cn2ccsc2n1)Nc1nc2c(s1)CCCC2
7	-2%	-9	4%	-2.1	2	COc1ccc(C(=O)N/C(=C\c2ccco2)C(=O)NC2CCS(=O)(=O)C2)cc1 (configuration not stated)
7	?	-1	6%	1.6	7	O=C1C2C3C=CC(C3)C2C(=O)N1c1cccc(-c2nc3ccccc3o2)c1 (configuration not stated)
0	-10%	-6	-24%	-2.1	-7	COc1ccc2cc(C3(C)NC(=O)N(CC(=O)NCCC4=CCCCC4)C3=O)ccc2c1 (configuration not stated)
14	?	-1	-8%	-1.1	14	CC(C)Oc1ccc(Cn2c(=O)oc3ccccc32)cc1
6	14%	-5	4%	1.9	-14	O=C(NNC(=O)c1cccc2ccccc12)c1cccc(F)c1
7	-20%	-17	1%	-1.2	9	COc1ccccc1CNC(=O)c1ccccc1OC
10	.	-3	.	-7.7	8	Cc1ccc2c(CN(Cc3ccccc3)Cc3ccccc3)cc(=O)oc2c1

Part of the list above in order of SMILES length, highest first.
Six1-Eya2 blk	gsp agonist	D2 potentiator	gsp antagonist	D2 ag	CtBP-E1A inh	mol
7	-2%	-9	4%	-2.1	2	COc1ccc(C(=O)N/C(=C\c2ccco2)C(=O)NC2CCS(=O)(=O)C2)cc1 (configuration not stated)
18	.	-20	.	44*	2	c1ccc(OCCNc2nc(NCC3CC3)nc3cc(-c4ccccc4)sc23)cc1
6	14%	-5	4%	1.9	-14	O=C(NNC(=O)c1cccc2ccccc12)c1cccc(F)c1
2	0%	-6	5%	-2.0	1	C=CCOc1nc(N(C)C)nc(N(C)C)n1

Remaining list, next part.
Six1-Eya2 blk	gsp agonist	D2 potentiator	gsp antagonist	D2 ag	CtBP-E1A inh	mol
55	6%	0	3%	-2.3	8	COc1ccccc1CNC(=O)c1ccccc1N
-1	-14%	-16	-15%	-7.0	-2	CNc1ccc(NC(C)=O)cc1[N+](=O)[O-]
3	-42%[inhibitor]	-14	-3%	-4.0	.	NNC(=O)c1n[nH]c(=O)c2ccccc12
7	-1%[15.4 µM]	-1	-15%	1.2	0	Cc1ccc(C)c(NC(=O)c2cc(-c3cc(C)ccc3O)n[nH]2)c1
4	6%	-3	18%	-4.0	-2	Brc1cccc(-c2nc3cccnc3nc2-c2cccc(Br)c2)c1
3	.	4	6%	-0.3	2	CC(=O)C[C@H]1c2cc(C(F)(F)F)ccc2S(=O)(=O)N1c1ccccc1
7	8%[15.4 µM]	0	-4%	-2.1	0	COc1ccc(S(=O)(=O)N2CCC(O)(c3cccnc3)CC2)cc1OC
3	.	-5	.	-3.8	9	Cc1cccc(C)c1NC(=O)C1(C)CCC(=O)N1C1CCN(Cc2ccccc2)CC1 (configuration not stated)
5	6%[15.4 µM]	-22	12%	1.9	16	CC(C)CC(NC(=O)C(NC(=O)C1OC2OC(C)(C)OC2C2OC(C)(C)OC12)C(C)C)C(=O)O (configuration not stated)
-3	35%	-9	-4%	-7.1	-14	CC(C)Cc1nnc(NC(=O)CN2C(=O)NC3(CCCCC3)C2=O)s1
6	.	-7	4%	-0.6	1	CCO[C@@H]1OC(C(=O)N2CCN(Cc3ccccc3)CC2)=C[C@H](C)[C@H]1CCCO
9	?	-10	8%	-3.9	5	CC1(C)CC(=O)C=C(NCc2ccco2)C1
2	.	-16	-7%	1.7	3	COC(=O)[C@@H]1C[C@@H]2CC[C@@H](O)C[C@@H]2N1Cc1ccc(N2CCN(C)CC2)cc1
3	-72%[inhibitor]	-2	-11%	-1.3	-1	CS(=O)(=O)c1cccc(C(=O)NCc2ccc(F)cc2)c1
5	5%	-14	6%	-3.6	2	CCOC(=O)C1=C(C)NC(=O)C1CC(=O)O (configuration not stated)
1	-7%	4	3%	-0.9	13	COc1ccccc1CNC(=O)COC(=O)c1cc2ccccc2o1
1	-6%	-9	.	-1.9	1	CCOc1ccccc1NC(=O)CCNC(=O)N1CC(=O)Nc2ccccc21
5	.	-7	10%	-0.6	1	COc1ccc(C(C#N)CCC2OCCO2)cc1OC (configuration not stated)
-2	-5%	14	-15%	-0.9	12	CCC(=O)N1CCN(c2ccccc2NC(=O)COc2cc(C)ccc2C(C)C)CC1
-1	-35%	-2	-7%	-3.0	8	Cc1cccc(OCC(=O)Nc2nnc(S(=O)(=O)N3CCC(C)CC3)s2)c1
-13	-7%	-7	-9%	-1.6	2	CCCCn1c(SCC(=O)NCc2ccco2)nc2cc(S(N)(=O)=O)ccc21
-13	-24%	-45	-8%	-5.1	-11	Cc1ccsc1C(=O)N/N=C/C=C/c1ccccc1[N+](=O)[O-]
-6	15%	7	15%	3.0	4	O=S(=O)(Cc1nnnn1-c1ccccc1)c1ccc(F)cc1
-9	-4%[15.4 µM]	-2	-29%	2.7	-3	CNC(=S)N/N=C/c1ccc(N(C)C)cc1
5	-69%[inhibitor]	-8	2%	-0.1	5	Cc1cc(C)c(S(=O)(=O)NCc2cccs2)cc1C
1	0%	5	?	-3.6	2	Cc1ccc2c(c1)NC(=O)C(N1CCOCC1)(C(F)(F)F)O2 (configuration not stated)
1	?	-4	19%	4.0	4	COc1ccc2c(c1)cc1c(=O)n(CC(=O)NCCCOC(C)C)nc(C)n12
3	17%	-8	9%	1.0	8	COc1ccc(-c2ccc3oc(-c4ccc(OC)cc4)c(-c4ccc(OC)cc4)c3c2)cc1
1	?	-4	5%	-2.7	14	Cc1cccc(CSc2nc(N)c(C#N)c(-c3cccs3)c2C#N)c1
0	-2%	0	4%	-0.1	0	CC(C)(C)c1ccc(-c2noc(CNC(=O)c3ccco3)n2)cc1
5	?	-3	17%	-1.9	-2	CN(C(=O)CSc1n[nH]c(N)n1)C1CCCCC1
0	?	1	-2%	-0.7	4	CCn1c(COc2cccc(C)c2)nnc1SCC(=O)N1CCCC1
3	-15%	-5	4%	0.6	.	COc1ccc(N(CC(=O)NC(C)(C)C)C(=O)CCC(=O)Nc2nccs2)c(OC)c1
5	6%	-14	.	-2.9	-8	COc1ccc(S(=O)(=O)N2CCC(C(=O)NCCC(=O)NCc3cccnc3)CC2)cc1
?	2%	-2	6%	-2.7	-20	COc1ccc(-c2c3c(=O)n(C)c(=O)n(C)c3cn2-c2cc(OC)ccc2OC)cc1
2	31%	-5	-3%	-0.2	2	CCc1cc(=O)oc2cc(C)cc(OC(C)C(=O)NCCN3CCOCC3)c12 (configuration not stated)
-2	-5%[15.4 µM]	-2	15%	0.4	-3	CC(CC(=O)N1CCN(S(=O)(=O)c2ccc(Cl)cc2)CC1)n1cncn1 (configuration not stated)
-3	-22%	-4	8%	8.7	1	CCOCCCN(C(=O)CNC(=O)c1ccco1)C(C(=O)NC1CCCC1)c1cccc(OC)c1 (configuration not stated)
-2	2%	-15	-3%	-2.3	-9	Cc1cc(-c2c(C)[nH]n(-c3ccccc3)c2=O)n(-c2ccccc2)n1
12	95%	1	0%	-1.9	-3	O=Cc1c(N2CCC3(CC2)OCCO3)nc2ccccn2c1=O

Some of the entries above in another layout.
| Structure | Six1-Eya2 blk | gsp agonist | D2 potentiator | gsp antagonist | D2 ag | CtBP-E1A inh |
| --- | --- | --- | --- | --- | --- | --- |
| C/C(=N\Nc1ccc(Cl)cc1)c1ccccn1 | -16 | -53%[inhibitor] | -10 | 3% | -2.6 | -10 |
| O=C(Cc1cn2ccsc2n1)Nc1nc2c(s1)CCCC2 | -5 | 14% | -44 | -7% | -4.9 | -1 |

Continuation.
Six1-Eya2 blk	gsp agonist	D2 potentiator	gsp antagonist	D2 ag	CtBP-E1A inh	mol
5	3%	-6	-8%	-3.1	-1	COc1ccc(C(=O)N2c3ccc(F)cc3CCC2C)cc1OC (configuration not stated)
-3	-4%	8	-10%	4.5	-7	COc1cc(/C=N/Nc2snc(SC)c2C#N)cc(OC)c1OC
1	3%[15.4 µM]	-6	7%	-1.7	-16	O=C(NCCCNC(=O)c1ccco1)c1ccc(Cl)cc1
-2	2%	-3	0%	-2.6	-4	CC(=O)c1c(C)[nH]c(C(=O)OC(C)C(=O)Nc2ccc(C)c(S(=O)(=O)N3CCOCC3)c2)c1C (configuration not stated)
-7	10%	-15	-23%	-2.8	2	C=CCn1c(CNC(=O)c2cccs2)nnc1SCC(=O)c1ccc(Br)cc1
-1	-22%	4	-5%	-2.3	0	Cc1sc(NC(=O)CCS(=O)(=O)c2ccccc2)c(C#N)c1C
7	-21%	-2	2%	0.5	11	CCC(C)NS(=O)(=O)c1ccc(OCC(=O)NCC2CCCO2)cc1 (configuration not stated)
0	2%	-1	-5%	-1.5	6	COc1cc(C(C(=O)NC(C)(C)C)N(C(=O)CNC(=O)c2cccs2)c2ccccc2)cc(OC)c1OC (configuration not stated)
7	-4%[15.4 µM]	-1	4%	-18	5	COC(=O)/C=C1/SC(=NC(=O)c2ccc(Cl)cc2)NC1=O
1	-8%	3	4%	-2.3	4	COc1ccc(C(C(=O)NC2CCCC2)N(C(=O)c2snc(-c3ccc(F)cc3)c2N)c2ccccc2)cc1 (configuration not stated)
2	-4%	4	?	0.0	-8	Cc1ccc(S(=O)(=O)N(C)c2ccc(OCC(=O)OCc3c(C)noc3C)cc2)cc1
-1	-5%	-3	0%	-2.9	5	CCOC(=O)c1ccc(N2C(=O)CC(N3CCC(Nc4ccc(F)cc4)CC3)C2=O)cc1 (configuration not stated)
5	-6%	-2	-10%	-2.8	.	O=C(CNC(=O)[C@@H]1Cc2ccccc2CN1)NC1CCCCC1
9	-10%	-6	7%	0.2	-1	CCCCn1c(N)c(N(CC(C)C)C(=O)c2ccncc2)c(=O)[nH]c1=O
